Screens deposited in PubChem BioAssay by National Center for Advancing Translational Sciences (NCATS).
TRPV1 potentiator: enhances activation of the human vanilloid receptor TRPV1; Q8NER1; TRPV1-expressing cells, Fluo-8 calcium influx, capsaicin EC20 potentiation; host cell line not named in the record; control for the full effect not named in the record; potentiation, % at 8.33 µM; 320,000 tested, 0.02% active; active means potentiation above 80%; inconclusive means 30% to 80%; inactive means below 30%; further: 0% is about no effect
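TRPV1-expressing cells were cultured overnight at 35.5C and loaded with Fluo-8 calcium dye for 40 to 90 min at room temperature. After a 10 s baseline, compound was added and calcium influx was read kinetically for 3 min (ex 480/em 520 nm).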
gsp ag: agonists of gsp mutant (McCune-Albright syndrome); gsp mutant cells, cAMP HTRF, 30 min; control for the full effect not named in the record; Potency, µM (series often up to 76.9 µM), inactives show at the top dose activation (cAMP increase), actives largely listed as activators; 340,000 tested, 0.13% active; AID 624287; active = well fitted activation curve with a large enough effect; inconclusive = small, poorly fitted or top-dose-only effect, or another doubt; inactive = no such curve, though single readings can be large or run the other way; cell line not stated here;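 further: phosphodiesterase inhibitor Ro 20-1724 added with compounds to block cAMP breakdown; potency means the concentration at half of the fitted maximal effect; nearly all actives have a fitted effect of over 60% in size; about a fifth of the inactives were tested at one dose only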
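Cells in DMEM/10% FBS with G418 were pretreated with compounds in DMSO plus […] (300 uM stock) for 30 min at 37C. cAMP was measured by HTRF (cAMP-d2 plus anti-cAMP antibody-K) after 30 min at room temperature.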
Sfp inh: inhibitors of Bacillus subtilis Sfp phosphopantetheinyl transferase; 310,000 tested, 3.5% active; Potency, µM, for inactives: max response, negative = inhibition, most hits filed as inhibitors; Biochemical Sfp PPTase activity, qHTS; Q9F4F7; active means well fitted inhibition curve with a large enough effect; inconclusive means small, poorly fitted or top-dose-only effect, or another doubt; inactive means no such curve, though single readings can be large or run the other way;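 further: the enzyme is Sfp with the accession as filed and its product quenches rhodamine fluorescence; potency means the concentration at half of the fitted maximal effect; 0% = enzyme reaction without inhibitor and -100% = no enzyme wells; top concentration of the series not given in the record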
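After 15 min at room temperature with compound, 15 nM Sfp received 5 uM rhodamine-CoA plus 12.5 uM BHQ-2-ybbR (50 mM Hepes pH 7.6, 10 mM MgCl2). Rate came from the fluorescence difference over 30 min, ex 525/em 598 nm.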
TRPML1 blocker: inhibitors of human TRPML1 channel; activity change, negative = inhibition, % (test concentration not listed); 390,000 tested, 0.02% active; Q9GZU1; TRPML1-inducible cells, Ca2+ dye fluorescence, FDSS; hits give low values; inhibition of EC80 agonist-evoked calcium signal; in the data active means activity change below about -50%; inconclusive means about -30% to -50%; inactive means above about -30%;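 further: stimulus is agonist 54-4 at its EC80 concentration; on the % scale 0 is the no-effect control and ±100 the full control effect; compound concentration not given in the record; the text of the record puts the active cut at -80%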
Target sequence (Q9GZU1 whole entry, looked up): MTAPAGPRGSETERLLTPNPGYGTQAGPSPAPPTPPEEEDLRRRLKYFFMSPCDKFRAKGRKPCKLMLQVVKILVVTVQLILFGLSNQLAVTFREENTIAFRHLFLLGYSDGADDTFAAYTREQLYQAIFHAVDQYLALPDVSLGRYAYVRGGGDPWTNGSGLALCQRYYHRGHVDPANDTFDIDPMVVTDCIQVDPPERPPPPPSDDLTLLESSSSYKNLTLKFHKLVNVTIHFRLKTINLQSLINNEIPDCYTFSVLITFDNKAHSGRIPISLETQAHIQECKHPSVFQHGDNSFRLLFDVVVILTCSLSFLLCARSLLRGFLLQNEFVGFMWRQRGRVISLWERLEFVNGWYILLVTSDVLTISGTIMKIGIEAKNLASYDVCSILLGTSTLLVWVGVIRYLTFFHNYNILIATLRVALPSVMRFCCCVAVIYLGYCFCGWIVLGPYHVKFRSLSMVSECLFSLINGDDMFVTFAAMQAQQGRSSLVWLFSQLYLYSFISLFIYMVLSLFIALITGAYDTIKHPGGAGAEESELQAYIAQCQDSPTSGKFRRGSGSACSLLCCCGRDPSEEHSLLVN
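Tet-induced TRPML1-DL cells loaded with Ca8 no-wash calcium dye were read kinetically on FDSS. Compound addition was followed by EC80 agonist 54-4 (4 uM final); inhibition was read over 110 s.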
gsp antag: antagonizes gsp, the McCune-Albright syndrome mutation. AID 624288. 340,000 tested, 0.4% active. gsp-mutant cells, cAMP HTRF, 30 min; control for the full effect not named in the record. Potency, µM (titrated, usually from 76.9 µM), for inactives: at the top dose activity change, negative = inhibition, hits mostly inhibitors; active = falling curve of any shape with a large fitted effect; inconclusive = falling curve, mostly with a smaller effect; inactive = flat or rising curve; cell line not stated here;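 further: intracellular cAMP measured with PDE inhibitor Ro 20-1724 present during compound exposure; potency means the concentration at half of the fitted maximal effect; on the % scale 0 is the no-effect control and ±100 the full control effect; nearly all actives have a fitted effect of over 65% in size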
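Cells, 2000/well, grown 16–24 h in DMEM 10% FBS with 0.5 mg/ml G418, then compounds plus […] (300 uM addition stock), 30 min at 37C. cAMP read by HTRF (cAMP-d2 and anti-cAMP antibody-K in lysis buffer) after 30 min RT.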
ClpP mod: qHTS Assay for Activators of ClpP. ATP-dependent Clp protease proteolytic subunit (Bacillus subtilis (strain 168)), P80244. purified B. subtilis ClpP, FRET peptide cleavage, 20 min. Potency, µM (highest dose often 57.5 µM), for the others: top-dose activity change, negative = active. 340,000 tested, 1.9% active; active = well fitted falling curve with a large enough effect; inconclusive = small, poorly fitted or top-dose-only effect; inactive = no such curve, though single readings can be large or run the other way; further: potency means the concentration at half of the fitted maximal effect; the source files actives as falling curves though it sought activators and does not explain the sign; nearly all actives have a fitted effect of over 65% in size; many hits overshoot -100%
Target sequence (P80244 whole entry, looked up): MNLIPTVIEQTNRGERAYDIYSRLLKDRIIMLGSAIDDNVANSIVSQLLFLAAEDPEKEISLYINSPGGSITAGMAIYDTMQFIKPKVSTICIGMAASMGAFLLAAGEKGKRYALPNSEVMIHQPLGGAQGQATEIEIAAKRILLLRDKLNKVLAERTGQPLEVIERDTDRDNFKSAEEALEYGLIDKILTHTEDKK
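Buffer: 100 mM Tris/HCl pH8, 100 mM KCl, 0.05% low protease BSA, 2.5% glycerol, 0.01% Tween-20. ClpP 10 microg/mL final; 20 min RT; delta FRET normalized to ADEP and DMSO controls.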
Menin MLL FP FL: displaces fluorescein MLL peptide from human menin | FP activity change, % at 61.4 µM | 290,000 tested, under 10 active | Fluorescence polarization, fluorescein-MLL peptide displacement from menin; inconclusive = falling polarisation curve, or a change in total fluorescence; inactive = total fluorescence flat and polarisation flat or rising; no compound was filed as active; the % refers to the polarisation; negative = inhibition;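 further: % of control where 0% means no effect; inhibitors lower the polarisation; unlabelled MLL peptide was the positive control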
Numbers without * were called inactive; [ ] = another dose, or the depositor's remark.

`Cc1c(C)c2cc(Cl)c(OCc3nn[nH]n3)cc2oc1=O` gave TRPV1 potentiator 21, gsp ag 22%, Sfp inh 79µM*, TRPML1 blocker 33, gsp antag 1%[15.4 µM], ClpP mod 30% and Menin MLL FP FL -0.9.
`Cc1ccc(-n2nc3c(c2NC(=O)c2ccc4c(c2)OCO4)CS(=O)C3)cc1` (configuration not stated) gave TRPV1 potentiator -6, gsp ag 12%[15.4 µM], Sfp inh 4%, TRPML1 blocker -10, gsp antag -5%, ClpP mod -3.1% and Menin MLL FP FL -0.1.
`COc1ccc(NC(=O)c2cccc(NC(=O)c3ccccc3)c2)cc1` gave TRPV1 potentiator 1, gsp ag -38%[inhibitor], Sfp inh 7%, TRPML1 blocker -16, gsp antag -4%, ClpP mod -9.3% and Menin MLL FP FL 4.2.
Screening C=CCSc1ncc(C#N)c(N)n1 returned TRPV1 potentiator 6, gsp ag inconclusive, Sfp inh -1%, TRPML1 blocker 20, gsp antag 8%, ClpP mod 0.3% and Menin MLL FP FL 1.3.
Screening CCNC(=O)c1sccc1-n1cccc1 returned TRPV1 potentiator -9, gsp ag 2%, Sfp inh 1%, TRPML1 blocker -4, gsp antag 21%, ClpP mod 3.2% and Menin MLL FP FL 0.3.
CC(=O)c1cc(CN2CCCCC2)cc(OC(C)C)c1 was read as TRPV1 potentiator 4, gsp ag 6%, Sfp inh 1%, TRPML1 blocker 10, gsp antag -23%, ClpP mod -0.8% and Menin MLL FP FL -1.1.
Screening COc1ccc(CNC(=O)C2CCN(S(=O)(=O)c3ccc(N4CCCC4=O)cc3)CC2)cc1 returned gsp ag -24%, TRPML1 blocker 8 and ClpP mod 1.1%.
For COc1cc2c(cc1OC)C(C)N(C(=O)c1cccs1)CC2 (configuration not stated) the results were TRPV1 potentiator 0, gsp ag -7%[15.4 µM], Sfp inh -17%, TRPML1 blocker 7, gsp antag 15%, ClpP mod 2.2% and Menin MLL FP FL 1.6.
Screening C[C@@H]1NC(=O)[C@H](CCCN=C(N)N)NC(=O)c2cc([N+](=O)[O-])cc(I)c2OCC[C@@H](C(=O)NC(CC(=O)O)C(N)=O)NC1=O (some centres not stated) returned TRPV1 potentiator 6, Sfp inh -12% and Menin MLL FP FL -2.9.
Screening CCOc1ccc(-c2nc(CCl)cs2)cc1OC returned TRPV1 potentiator 2, gsp ag -1%[15.4 µM], Sfp inh -1%, TRPML1 blocker 15, gsp antag -3%, ClpP mod 0.6% and Menin MLL FP FL 1.1.
For CC(C)CN=C(NS(=O)(=O)c1ccccc1)C(Cl)(Cl)Cl the results were TRPV1 potentiator 19, gsp ag -32%[inhibitor], Sfp inh 22%, TRPML1 blocker -14, gsp antag 21% and ClpP mod -2.8%.
O=C1c2ccccc2-c2c1cccc2C(=O)N1CCCCCC1 was read as TRPV1 potentiator -2, gsp ag -5%, Sfp inh 4%, TRPML1 blocker -8, gsp antag 10%, ClpP mod -5.4% and Menin MLL FP FL 0.9.
`CCOc1ccc(S(=O)(=O)N2CCC(C(=O)NCc3ccncc3)CC2)cc1C` gave TRPV1 potentiator -14, gsp ag -6%[15.4 µM], Sfp inh 0%, TRPML1 blocker 18, gsp antag -3% and Menin MLL FP FL -2.6.
`Cc1cccc(-n2c(SCC(=O)Nc3nonc3C)nnc2-c2ccoc2C)c1` gave TRPV1 potentiator -11, gsp ag -13%, Sfp inh -6%, TRPML1 blocker 8, gsp antag -18%, ClpP mod -1.6% and Menin MLL FP FL -5.3.
`Cc1cccc(-c2ccc3c(c2)C2CC3CCN2)c1` (configuration not stated) gave TRPML1 blocker 5, gsp antag 2% and ClpP mod 0.2%.
Screening O=C(c1ccccc1)N1CCN(C2CC(=O)N(CCc3ccccc3)C2=O)CC1 (configuration not stated) returned TRPV1 potentiator -13, gsp ag -12%, Sfp inh 10%, TRPML1 blocker -6, gsp antag 6%, ClpP mod -1.8% and Menin MLL FP FL 2.9.
For COC(=O)Cn1c(=NC(=O)CSCC(=O)NC2CCCCC2)sc2cc(OC)ccc21 the results were TRPV1 potentiator 8, gsp ag -3%, Sfp inh 11%, TRPML1 blocker -6, gsp antag 2%, ClpP mod inconclusive and Menin MLL FP FL 2.4.
`O=C(Nc1cccc(O)c1)c1cc(-c2cccs2)on1` gave TRPV1 potentiator -9, gsp ag 3%, Sfp inh 26%, TRPML1 blocker -8, gsp antag -5% and Menin MLL FP FL 1.1.
Brc1ccccc1-c1nnc(SCc2nc3ccccc3s2)o1 was read as TRPV1 potentiator inconclusive, gsp ag -3%[15.4 µM], Sfp inh -10%, TRPML1 blocker -4, gsp antag -28% and ClpP mod -0.1%.
`CCN(C(=O)C1CCCN1S(=O)(=O)c1cccc2nsnc12)c1ccccc1` (configuration not stated) gave TRPV1 potentiator -13, gsp ag -37%[inhibitor], Sfp inh 24%, TRPML1 blocker 2, gsp antag -11%, ClpP mod -0.2% and Menin MLL FP FL -2.3.
For O=C(NCCN1CCOCC1)c1cc([N+](=O)[O-])cc([N+](=O)[O-])c1 the results were TRPV1 potentiator 5, gsp ag -10%[15.4 µM], Sfp inh 16%, TRPML1 blocker -14, gsp antag 6%, ClpP mod 0.1% and Menin MLL FP FL 0.0.
Screening O=C(O)c1cc(-n2nnnc2SCc2ccc([N+](=O)[O-])cc2)ccc1Cl returned TRPV1 potentiator inconclusive, gsp ag 11%[15.4 µM], Sfp inh 10%, TRPML1 blocker 6, gsp antag 5%, ClpP mod -0.6% and Menin MLL FP FL -15.
CC(C)CCNC(=O)CN(Cc1cccs1)C(=O)CCC(=O)Nc1nccs1 was read as TRPV1 potentiator 1, gsp ag -13%, Sfp inh 10%, TRPML1 blocker 3, gsp antag -9%, ClpP mod 0.4% and Menin MLL FP FL 1.3.
Screening Cc1ccc(-n2nnnc2C(=Cc2ccc(N(C)C)cc2)c2nnnn2-c2ccc(C)cc2)cc1 returned TRPV1 potentiator 6, gsp ag -39%[inhibitor], Sfp inh 24%, TRPML1 blocker 2, gsp antag -8%, ClpP mod -0.3% and Menin MLL FP FL inconclusive.
For COc1ccc(NC(=O)C2CC2)cc1NS(=O)(=O)c1ccc(F)cc1 the results were TRPV1 potentiator 10, gsp ag 3%, Sfp inh 11%, TRPML1 blocker 13, gsp antag -2%, ClpP mod 0.4% and Menin MLL FP FL 1.7.
`N/C(CN1CCCC1=O)=N\OC(=O)c1ccc(Cl)c(Cl)c1` gave TRPV1 potentiator 1, gsp ag 4%[15.4 µM], Sfp inh 18%, TRPML1 blocker -22, gsp antag 2%, ClpP mod -1.2% and Menin MLL FP FL -1.3.
For COc1ccccc1NS(=O)(=O)c1ccc(N/N=C/c2ccccc2OCC(=O)O)c([N+](=O)[O-])c1 the results were TRPV1 potentiator 0, gsp ag -15%[15.4 µM], Sfp inh -14%, TRPML1 blocker 56, gsp antag -23% and Menin MLL FP FL 0.7.
Screening CCc1ccc(NC(=O)CCNC(=O)Cn2ccc3ccccc3c2=O)cc1 returned TRPV1 potentiator 21, gsp ag inconclusive, Sfp inh 7%, TRPML1 blocker 31, gsp antag 5% and Menin MLL FP FL -3.3.
For CC1C(=O)N(Cc2cn(CC3CCCCC3)nn2)CCS(=O)(=O)N1Cc1ccc(-c2cccc(CO)c2)cc1 (configuration not stated) the results were gsp ag -38%[inhibitor], TRPML1 blocker 15 and ClpP mod 1.1%.
`Cc1ccc(OCCN2C(=O)C(=O)c3cccc(C)c32)cc1` gave TRPV1 potentiator 27, gsp ag 10%[15.4 µM], Sfp inh 15%, TRPML1 blocker -12, gsp antag 5% and Menin MLL FP FL 3.5.
Screening O=[N+]([O-])c1cc(S(=O)(=O)C(F)(F)F)ccc1NCC1CCCO1 (configuration not stated) returned TRPV1 potentiator -18, gsp ag -1%[15.4 µM], Sfp inh 16%, TRPML1 blocker 17, gsp antag -43%, ClpP mod 0.6% and Menin MLL FP FL 5.2.
For CCOC(=O)c1oc2ccccc2c1NC(=O)COC the results were TRPV1 potentiator -12, gsp ag inconclusive, Sfp inh 9%, TRPML1 blocker 2, gsp antag -1%, ClpP mod -26% and Menin MLL FP FL -0.3.
For COc1ccc(/C=C2\SC(=S)NC2=O)cc1OS(=O)(=O)c1ccc(NC(C)=O)cc1 the results were TRPV1 potentiator 17, gsp ag 0%[15.4 µM], Sfp inh -11%, TRPML1 blocker 22, gsp antag inconclusive and Menin MLL FP FL inconclusive.
Screening CCOC(=O)c1c(N2C(=O)Nc3ccccc3N2O)sc2c1CCCC2 returned TRPV1 potentiator 22, gsp ag -3%[15.4 µM], Sfp inh 9%, TRPML1 blocker 10, gsp antag -1% and Menin MLL FP FL 1.4.
`CC(C)C(NS(=O)(=O)c1cccc(C(F)(F)F)c1)C(=O)N1CCc2ccccc2C1` (configuration not stated) gave TRPV1 potentiator -14, gsp ag -19%, Sfp inh -5%, TRPML1 blocker 14, gsp antag -16% and Menin MLL FP FL -1.1.
`CC(C)c1[nH]nc2c1C(c1cccc(OC(=O)N3CCOCC3)c1)C(C#N)=C(N)O2` (configuration not stated) gave TRPV1 potentiator 17, gsp ag inconclusive, Sfp inh 0%, TRPML1 blocker 7, gsp antag -2%, ClpP mod -4.9% and Menin MLL FP FL 1.7.
O=C(Nc1cccc(C(=O)N2CCCc3ccccc32)c1)c1ccccc1 was read as TRPV1 potentiator -1, gsp ag -2%[15.4 µM], Sfp inh -7%, TRPML1 blocker -15, gsp antag -10%, ClpP mod 1.6% and Menin MLL FP FL 9.1.
`COC(=O)C1=C(C)N(c2ccc(OC)c(OC)c2)C(=O)/C1=C\c1cccs1` gave TRPV1 potentiator 3, gsp ag 3%[15.4 µM], Sfp inh -5%, TRPML1 blocker -5, gsp antag -3% and Menin MLL FP FL 5.6.
CC(C)c1ccc(NC2CCCN(C(=O)CN3CCOC3=O)C2)cc1 (configuration not stated) was read as TRPV1 potentiator -6, gsp ag -53%[inhibitor], Sfp inh 15%, TRPML1 blocker -1, gsp antag 16% and ClpP mod 1.2%.
